Ecoli rRNA inh: reduced GFP signal of wild-type E. coli, primary screen, bacterial rRNA inhibitor project, GFP/RFP fluorescence, OD600, single point; GFP signal change (wild-type ribosome), % (concentration not given with the values); E. coli WT GFP vs humanized-ribosome RFP mutants, 24 h; stronger effect = lower value; DMSO median 0, no signal -100; 350,000 compounds, 1.6% hits;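 active = significant combined selectivity score with lowered wild-type GFP, culture density cut under 30%, mutant RFP and density less affected; inactive = any of these conditions unmet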; also: one replicate is shown; some compounds called inactive have numbers as strong as hits
HNF4A DNA FP: change in binding of human HNF4A to DNA, primary screen, biochemical, fluorescence polarization, FITC-DNA; Hepatocyte nuclear factor 4-alpha (Homo sapiens), P41235; 1 h; activity change, % at 10 µM; 360,000 compounds, 0.3% hits; AID 1224865, 2016; in the data active = activity change above about 30%, passing the limit was not always enough;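 also: controls were the assay level and a saturating level of protein; the project sought stronger binding though the title names inhibitors; some compounds called inactive have numbers as strong as hits; positive values seem to mean higher polarization but the record does not say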
Ecoli growth: E. coli growth inhibition, primary screen, OD600 | OD600 absorbance (test concentration not listed) | 330,000 compounds, 0.21% hits | Escherichia coli growth, 23 h; stronger effect = lower value;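 active = OD600 absorbance below the run mean of sample wells minus 3.6 SD, in any replicate, cut at about 0.56 in these data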;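 also: stock transfer was 300 nL into about 60 µL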
UCH37 DUB inh: inhibitors of human UCH37 deubiquitinase, primary screen, biochemical, Ub-AMC cleavage, fluorescence; Ubiquitin carboxyl-terminal hydrolase isozyme L5 (Homo sapiens), Q9Y5K5; purified proteasome/UCH37; inhibition, % (test concentration not listed); 330,000 compounds, 0.33% hits; AID 588478, 2011;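 active = mean of two replicates above 20%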;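 also: 0% = compound-free wells with enzyme and 100% = wells lacking proteasome; stock transfer was 100 nL into about 20 µL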
Target sequence (Q9Y5K5 whole entry, looked up): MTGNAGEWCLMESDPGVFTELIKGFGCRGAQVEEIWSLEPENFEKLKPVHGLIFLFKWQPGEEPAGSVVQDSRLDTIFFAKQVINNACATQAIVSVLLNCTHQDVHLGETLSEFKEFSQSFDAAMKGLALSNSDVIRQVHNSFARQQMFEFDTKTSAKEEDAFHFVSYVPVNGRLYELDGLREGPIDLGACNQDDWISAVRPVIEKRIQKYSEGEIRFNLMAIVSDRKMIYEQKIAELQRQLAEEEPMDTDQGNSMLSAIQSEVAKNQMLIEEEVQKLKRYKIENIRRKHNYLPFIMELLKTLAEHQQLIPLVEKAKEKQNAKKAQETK
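assay system = human UCH37 enzyme supplied as purified proteasome complex | amount = proteasome at 0.15 nM in the dispensed enzyme solution | schedule = 30 min compound-proteasome preincubation then 25 min substrate reaction, room temperature | measured by = fluorescence, ex 355 nm, em 460 nm | benchmarks = no-proteasome wells (full inhibition) and compound-free wells (no inhibition)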
Beta2AR agonist: beta2AR agonists driving receptor internalization, primary screen, cell-based, FAP fluorogen, flow cytometry. Beta-2 adrenergic receptor (Homo sapiens), P07550. Am2.2-beta2AR cells; reference of the scale not given here. response, % (test concentration not listed). 340,000 compounds, 0.43% hits. AID 504454, 2011;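 active = response above a set limit, near 3 SD of response in nonfluorescent compounds, cut at about 42% in these data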;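 also: stock transfer was 100 nL into about 11 µL; a reference agonist was the positive control; negative values mostly stem from fluorescent compounds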
Target sequence (P07550 whole entry, looked up): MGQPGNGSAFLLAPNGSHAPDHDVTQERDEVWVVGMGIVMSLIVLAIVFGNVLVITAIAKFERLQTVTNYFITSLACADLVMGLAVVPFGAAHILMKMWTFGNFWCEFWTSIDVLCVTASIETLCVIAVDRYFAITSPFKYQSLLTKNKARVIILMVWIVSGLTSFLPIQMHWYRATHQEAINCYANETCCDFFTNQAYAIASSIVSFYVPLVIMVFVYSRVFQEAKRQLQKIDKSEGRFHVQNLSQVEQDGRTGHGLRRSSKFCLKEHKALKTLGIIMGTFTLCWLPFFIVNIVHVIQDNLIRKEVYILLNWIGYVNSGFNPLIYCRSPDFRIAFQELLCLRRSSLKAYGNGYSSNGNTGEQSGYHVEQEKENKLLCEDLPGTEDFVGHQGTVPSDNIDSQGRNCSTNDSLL
ALR inh: inhibitors of human ALR sulfhydryl oxidase, primary screen, biochemical, H2O2 detection, HRP-luminol luminescence, single point | inhibition, % (test concentration not listed) | 290,000 compounds, 3.8% hits | purified ALR, DTT oxidation | FAD-linked sulfhydryl oxidase ALR (Homo sapiens), P55789;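 active = mean and each replicate at 75% or more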;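 also: stock transfer was 7.5 nL into about 7.5 µL; 0% = neutral wells and 100% = wells with inactivated enzyme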
FGF22 binding: binders of human FGF22 protein, primary screen, FGF22 synaptogenesis inhibitor project, biophysical, thermal shift, single point; Fibroblast growth factor 22 (Homo sapiens), Q9HCT0; recombinant FGF22 thermal shift, SYPRO orange fluorescence; percent of sucrose octasulfate shift, DMSO zero; calls only at 9.99 µM; 340,000 compounds, 1.5% hits; AID 651658, 2012;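 active = melting point raised past a set limit in the mean and every replicate; three in four hits are not shown here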
Target sequence (Q9HCT0 whole entry, looked up): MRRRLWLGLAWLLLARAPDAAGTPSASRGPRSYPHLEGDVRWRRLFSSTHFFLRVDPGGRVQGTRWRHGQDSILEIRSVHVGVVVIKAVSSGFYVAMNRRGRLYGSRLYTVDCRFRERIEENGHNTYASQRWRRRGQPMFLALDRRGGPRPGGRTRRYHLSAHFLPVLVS
Ecoli rRNA inh OD600: second read-out of Ecoli rRNA inh, no call of its own (marks repeat the call); OD600 change, %; measured here: OD600 growth;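 optical density of the mix in the first replicate; 0 = DMSO median and -100 = no signal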
Ecoli rRNA inh RFP: further read-out of Ecoli rRNA inh, marked with its call; RFP signal change, %; measured here: RFP humanized mutant strains;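 first replicate; 0 = DMSO median and -100 = no signal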
The depositor's hits bear a star; i = inactive; / = not tested or not shown. The list is partial (hit frequency here may not be typical).

SMILES	Ecoli rRNA inh	Ecoli rRNA inh OD600	Ecoli rRNA inh RFP	HNF4A DNA FP	Ecoli growth	UCH37 DUB inh	Beta2AR agonist	ALR inh	FGF22 binding
CC1CCN(c2nc3c(c(=O)n(C)c(=O)n3C)n2CCSc2ncccn2)CC1	6	15	-2.6	-1.9	0.78	4.2	-11	-20	i
CCOC(=O)COn1c(=O)c(-c2cc3ccccc3o2)[n+]([O-])c2ccccc21	/	/	/	-15	0.72	-18	-6	-1	/
COc1ccc2c(c1)C(C)CC(C)(C)N2C(=O)CSc1ncn[nH]1 (stereo not drawn)	/	/	/	2.4	0.7	3.6	7	4	/
Cc1ccc2c(c1)C(=O)CC(c1ccc3c(c1)OCCO3)O2 (stereo not drawn)	-16	-42	-5.2	-1.1	0.66	3.5	-8	2	i
Cc1cc(C)nc(N2CCC(C(=O)NC3CCCc4ccccc43)CC2)n1 (stereo not drawn)	/	/	/	-1.9	0.73	3.6	0	6	/
C[C@H]1O[C@H](O[C@H]2[C@H](O[C@@H]3CC[C@@]4(C)C(CC[C@]5(C)C4CC=C4[C@@H]6CC(C)(C)CC[C@]6(C(=O)O[C@@H]6O[C@H](CO)[C@@H](O)[C@H](O)[C@H]6O)CC[C@]45C)C3(C)C)O[C@H](C(=O)O)[C@@H](O)[C@@H]2O)[C@@H](O)[C@@H](O)[C@@H]1O (stereo partly drawn)	/	/	/	2.7	0.73	2.6	8	/	i
CN(C(=O)c1ccccc1C(=O)OCC(=O)Nc1cccc(Br)c1)c1ccccc1	-9	-34	-2.8	-3.4	0.69	2.1	16	-3	i
O=C1NC(=S)N/C1=C\c1cccc([N+](=O)[O-])c1	6	4	6.9	-1.1	0.66	3.8	8	7	i
CCOC(=O)c1cc2ccc(OC)cc2oc1=O	/	/	/	-2.1	0.69	i	-5	3	/
COc1ccc(-c2ccc3c(c2)C2CC3CCN2C(=O)C2CCCCC2)cc1 (stereo not drawn)	-3	6	-1.3	2.4	/	/	2	/	i
Cc1c(Cl)cccc1NC(=S)NCC(C)C	4	5	-3.9	-0.8	0.73	4.7	-5	6	i
Cc1ccc(NC(=O)Cn2c3ccc(F)cc3c3nc4n(c(=O)c32)CCS4)cc1F	2	6	0.6	-1.8	0.68	-17	-3	-1	i
CCCCCC(=O)Nc1cc2[nH]c(=O)cc(COC)c2cc1C	/	/	/	-0.7	0.67	-19	1	-7	/
Cc1cccc(CSc2nnc(-c3cnccn3)n2C)c1	10	1	0.2	0.1	0.7	1.7	-4	4	i
CCOC(=O)c1c(N)sc2c(OC)c(Br)ccc12	/	/	/	1.9	0.65	5.1	11	99*	/
O=C(O)CNS(=O)(=O)c1ccc2c(c1)C(=O)c1cc(S(=O)(=O)NCC(=O)O)ccc1-2	7	8	-2.0	-1.2	0.65	5.5	8	-14	i
c1ccc(-n2ncc3c(N4CCN(CCOc5cccc6ccccc56)CC4)ncnc32)cc1	/	/	/	-0.4	0.67	-10	-3	/	/
Cc1ccc(/C=C/C(=O)c2c(C)nc3ccccn23)cc1	/	/	/	-0.3	0.68	8.1	-1	98*	/
CCOc1ccc(-c2nnc(SCC(=O)N3CCN(c4ccccc4)CC3)o2)cc1	6	9	1.4	1.7	0.77	3.2	3	-2	i
Cc1cc(C)nc(NS(=O)(=O)c2ccc(NC(=O)CN3C(=O)c4ccccc4C3=O)cc2)n1	/	/	/	/	0.67	3.2	/	0	/
Cc1c(=O)n(OCc2ccccc2)c2ccccc2[n+]1[O-]	/	/	/	0.5	0.76	-6.8	-3	-26	/
Cc1nn(-c2ccccc2)c(C)c1C(=O)OCC(=O)N(C)c1c(N)n(Cc2ccccc2)c(=O)[nH]c1=O	12	12	0.9	1.1	0.66	-0.2	1	25	i
COc1cc(/C=C/C(=O)OCC(=O)NCc2cccs2)ccc1OCC#N	/	/	/	1.1	0.64	-32	-4	-6	/
O=C(CC1SC(N2CCOCC2)=NC1=O)Nc1ccc(Cl)c(C(F)(F)F)c1 (stereo not drawn)	/	/	/	2.3	0.66	2.7	-2	/	i
Cn1c(CCNC(=O)c2ccco2)nc2cc([N+](=O)[O-])ccc21	17	8	4.3	-1.3	0.69	5.2	-9	0	i

Complete entries, quoted from the list. Screens in order: Ecoli rRNA inh	Ecoli rRNA inh OD600	Ecoli rRNA inh RFP	HNF4A DNA FP	Ecoli growth	UCH37 DUB inh	Beta2AR agonist	ALR inh	FGF22 binding
Cn1c(CCNC(=O)c2ccco2)nc2cc([N+](=O)[O-])ccc21 across the screens: 17	8	4.3	-1.3	0.69	5.2	-9	0	i
Cc1ccc(NC(=O)Cn2c3ccc(F)cc3c3nc4n(c(=O)c32)CCS4)cc1F across the screens: 2	6	0.6	-1.8	0.68	-17	-3	-1	i

(further entries)
SMILES	Ecoli rRNA inh	Ecoli rRNA inh OD600	Ecoli rRNA inh RFP	HNF4A DNA FP	Ecoli growth	UCH37 DUB inh	Beta2AR agonist	ALR inh	FGF22 binding
COc1ccc(/C=C/C2=CC(C)(C)NC(=S)N2)cc1	7	4	-3.0	-3.3	0.71	-0.2	3	7	i
Cc1ccc([C@H]2C[C@@H](n3cc(COC(=O)c4ccccc4)nn3)[C@H](O)CN2Cc2cccs2)cc1	5	16	-3.1	-4.4	/	/	/	/	i
COC(=O)c1ccc(NC(=S)NCCc2cccc(C)c2)cc1	/	/	/	-0.4	0.68	3.6	8	38	/
Cc1cc(Br)cc2c(C(=O)NCC3CCCO3)cc(-c3cccs3)nc12 (stereo not drawn)	-1	6	1.9	-2.7	0.76	-9.3	4	-3	i
COc1ccc(C2=C/C(=C\c3ccccc3OC(C)=O)C(=O)O2)cc1	7	-1	-5.1	0.6	0.71	2.6	0	8	i
Cc1cc(C)nc(SCc2cc(=O)c(OC(=O)c3ccc(Cl)c([N+](=O)[O-])c3)co2)n1	/	/	/	-1.4	0.69	3.9	9	10	/
CC(=O)Nc1ccc(C2=CC(=O)C[C@H](c3ccc4c(c3)OCO4)C2)cc1	-6	-9	-8.2	-6.9	0.71	3.2	-7	26	i
O=S(=O)(c1ccc(Br)cc1)N1CCOC12CCCCC2	-19	-26	0.2	0.8	0.64	3.0	-4	2	i
COc1ccc(C(=O)NCc2cn3cccc(C)c3n2)cc1OC	0	2	-2.0	-3.5	0.78	1.2	0	-10	i
COc1ccc(N2CCN(C(CNC(=O)C(=O)NCCc3c[nH]c4ccccc34)c3ccco3)CC2)cc1 (stereo not drawn)	/	/	/	2.2	0.72	-22	5	8	/
CC(C)C(=O)Nc1ccc2c(c1)nc(CCN1CCN(c3ccccn3)CC1)n2C	6	14	0.1	0.8	0.66	0.0	2	-1	i
CCn1cc(C(C)NC(=O)Nc2ccc3c(c2)OCO3)c(C)n1 (stereo not drawn)	8	3	-5.8	-2.3	0.64	1.8	1	-3	i
C/C(N)=C(/C#N)C(=O)CSc1nc2ccccc2n1CC(C)C	9	-1	0.5	-1.8	0.69	2.6	-12	-13	i
CC1=C(C)CC(C(=O)Nc2ccc(C(=O)N3CCOCC3)cc2)C(C(=O)O)C1 (stereo not drawn)	20	14	0.9	-3.9	0.68	1.1	-5	-8	i
CCC(=O)NCC(c1cccs1)N1CCOCC1 (stereo not drawn)	18	7	5.2	-2.8	0.75	-1.5	-3	-1	i
CCC(C)NC(=O)C1CCN(S(=O)(=O)CC)CC1 (stereo not drawn)	7	9	-10	-4.2	0.7	4.0	0	-4	i
CC1O[C@@H](OC2C(O)C(C)O[C@H](OC(=O)[C@]34CCC(C)(C)C[C@H]3C3=CCC5[C@@]6(C)CC(O)C(O[C@@H]7OC(CO)C(O)[C@@H](O)[C@@H]7O)[C@@](C)(C(=O)O)C6CC[C@@]5(C)[C@]3(CO)CC4)C2O[C@H]2OC(C)[C@@H](O[C@@H]3OCC(O[C@@H]4OC(CO)C(O)[C@H](O)C4O)[C@@H](O)[C@@H]3O)[C@H](O)C2O)C(O)C(O)C1O (stereo partly drawn)	27	17	-1.0	-3.3	/	1.9	-4	23	i
O=C(Nn1cnnc1)c1cccc(S(=O)(=O)N2CCOCC2)c1	/	/	/	-4.1	0.73	0.2	0	/	i
CCN(C(=O)COC(=O)c1ccc([N+](=O)[O-])o1)C1CCCCC1	5	8	-1.8	2.3	0.67	21*	3	-92	i
O=C(O)C1CCC(C(=O)O)O1 (stereo not drawn)	6	12	-0.6	0.4	0.71	0.6	-4	/	i
CN(C)c1cccc(CNC(=O)c2ccc3sc([C@H]4C[C@H](O)[C@@H](CO)O4)nc3c2)c1	7	19	0.0	0.9	/	/	/	/	i
COc1ccc(CCNC(=O)c2cc(=O)n(C)c(=O)n2C)cc1OC	10	8	-1.7	1.2	0.71	1.8	-2	-20	i
C/C(=N\NC(=O)c1cc(C(C)(C)C)[nH]n1)C12CC3CC(CC(C3)C1)C2	-2	10	-0.4	-1.6	/	/	-3	0	i
Cc1cc(OCC(=O)Nc2ccc(S(=O)(=O)N3CCN(C)CC3)cc2)ccc1Br	-55	-76	-13	3.0	0.66	2.4	11	0	i
CCOc1ccc(Cl)cc1CSc1n[nH]c(CC)n1	/	/	/	-2.5	0.69	3.4	4	2	/

Limited to FGF22 binding, Beta2AR agonist and Ecoli growth (5 entries from above):
Structure | FGF22 binding | Beta2AR agonist | Ecoli growth
COc1ccc(C2=C/C(=C\c3ccccc3OC(C)=O)C(=O)O2)cc1 | i | 0 | 0.71
Cc1cc(C)nc(SCc2cc(=O)c(OC(=O)c3ccc(Cl)c([N+](=O)[O-])c3)co2)n1 | / | 9 | 0.69
CC(=O)Nc1ccc(C2=CC(=O)C[C@H](c3ccc4c(c3)OCO4)C2)cc1 | i | -7 | 0.71
O=S(=O)(c1ccc(Br)cc1)N1CCOC12CCCCC2 | i | -4 | 0.64
COc1ccc(C(=O)NCc2cn3cccc(C)c3n2)cc1OC | i | 0 | 0.78

Additional structures:
SMILES	Ecoli rRNA inh	Ecoli rRNA inh OD600	Ecoli rRNA inh RFP	HNF4A DNA FP	Ecoli growth	UCH37 DUB inh	Beta2AR agonist	ALR inh	FGF22 binding
Cc1ccnc(NC(=O)C23CC4CC(CC(C4)C2)C3)c1	/	/	/	2.5	0.64	2.5	-6	-3	/
O=C(CCC(=O)c1ccc(F)cc1)NN1C(=O)NC2(CCCCC2)C1=O	11	9	-5.6	-0.2	0.71	2.1	2	-7	i
Cc1ccc(NC2CCCN(C(=O)c3ccc4[nH]ccc4c3)C2)cc1C (stereo not drawn)	-5	-13	-0.4	-0.5	0.72	2.4	7	88*	i
CCOc1ccc(NS(=O)(=O)c2cc(C(=O)N3CC(C)OC(C)C3)ccc2C)cc1 (stereo not drawn)	-8	-14	-0.1	0.4	0.69	4.6	-6	-8	i
O=S(=O)([O-])CCC[n+]1c(SCCCS(=O)(=O)O)sc2ccc(Cl)cc21	3	-5	8.3	0.7	0.67	5.4	0	9	i
O=C(Cn1nnc2ccccc2c1=O)NCCc1ccc(Cl)cc1Cl	14	13	0.2	1.4	0.7	1.1	-14	-7	i
Cc1nc2ccccc2c(=O)n1/N=C/c1cc(Br)ccc1O	-4	-11	-1.4	3.0	/	/	-4	5	i

Assay outcomes deposited in PubChem by several laboratories.
